Mtb growth – M. tuberculosis H37Rv growth inhibitors, H37Rv strain (AID 1626); M. tuberculosis H37Rv growth inhibition; higher % means a stronger effect; one-dose inhibition, % at 10 µM; IC50 in µM for titrated hits; actives 0.95% (n = 220,000);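 active = confirmed in a dose series; inconclusive = inhibition above 80% but not taken into the dose series; inactive = below 80% or under 30% at every dose of the series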;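 also: bacteria incubated seven days before Alamar blue readout; 0% = bacteria only wells and 100% = bacteria with antibiotic wells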
RecA intein inh – inhibitors of M. tuberculosis RecA intein splicing; actives 0.75% (n = 290,000); inhibition, %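 (about 9 µM by stock and volumes)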; cell-free RecA intein splicing, fluorescence; in the data active = inhibition above about 30%; inconclusive = no clear call, values can overlap the other calls;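 also: 0% = vehicle wells and 100% = reference inhibitor control wells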
Target sequence (P9WHJ3 whole entry, looked up): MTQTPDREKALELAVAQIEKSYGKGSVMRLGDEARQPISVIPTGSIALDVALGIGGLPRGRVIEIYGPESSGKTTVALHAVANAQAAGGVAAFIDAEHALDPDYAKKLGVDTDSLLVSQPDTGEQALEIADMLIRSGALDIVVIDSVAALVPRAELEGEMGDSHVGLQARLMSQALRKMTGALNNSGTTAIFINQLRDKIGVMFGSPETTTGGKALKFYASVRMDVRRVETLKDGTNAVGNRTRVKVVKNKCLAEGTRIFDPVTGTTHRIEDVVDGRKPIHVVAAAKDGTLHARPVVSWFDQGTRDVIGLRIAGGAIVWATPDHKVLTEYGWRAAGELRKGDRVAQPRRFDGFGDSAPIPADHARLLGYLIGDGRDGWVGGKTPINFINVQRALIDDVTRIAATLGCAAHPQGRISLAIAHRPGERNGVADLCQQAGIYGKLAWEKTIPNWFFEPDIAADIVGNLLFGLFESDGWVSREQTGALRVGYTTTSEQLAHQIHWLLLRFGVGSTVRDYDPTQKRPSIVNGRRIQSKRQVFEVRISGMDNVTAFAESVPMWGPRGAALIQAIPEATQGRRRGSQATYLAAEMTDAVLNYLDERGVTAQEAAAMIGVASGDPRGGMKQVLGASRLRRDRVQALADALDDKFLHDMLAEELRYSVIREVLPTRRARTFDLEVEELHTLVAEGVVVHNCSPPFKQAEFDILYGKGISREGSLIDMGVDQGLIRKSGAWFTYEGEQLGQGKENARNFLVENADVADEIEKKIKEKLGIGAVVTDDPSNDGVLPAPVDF
YopH PTP inh – YopH (Yersinia) phosphatase inhibition. fluorescence Ex485/Em525. actives 0.16% (n = 140,000). AID 898. inhibition, %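 (about 10 µM by stock and volumes)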;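 active = inhibition of 50% or more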;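 also: controls were vehicle for no effect and minimum signal wells for full effect; inactives centre near -20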
Mtb bLac sens – beta-lactam sensitization of Mtb H37Rv. M. tuberculosis H37Rv growth with meropenem, percent inhibition; hits of this screen are not shown here. inhibition, % at 25 µM. actives 0.27% (n = 330,000);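 active = about 74% or more and at least 40 points above the plate without the antibiotic, then above 30% in a dose series; inconclusive = first-round hits that could not be retested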;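 also: growth measured after seven days incubation then overnight dye step; 0% = bacteria only wells and 100% = bacteria with antibiotic; twin plates without the antibiotic show which effects depend on it; some results filed as inactive read as strong as hits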
Arbovirus inh – blocks arbovirus infection | inhibition, % at 10 µM | arbovirus infection cell-based antiviral screen | AID 1251 | actives 0.37% (n = 200,000);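 active = inhibition from about 30%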;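 also: bluetongue infection of BSR cells; cell survival read as ATP light after 72 h; 0% = infected wells without compound and 100% = uninfected wells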
Arbovirus inh repeat – second read-out of Arbovirus inh, no call of its own (marks repeat the call); inhibition, %; measured here: 10K subset replicate screen; many hits read low in the repeat;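 first of two repeat runs on a subset; 0% = infected and 100% = uninfected wells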
Numbers without * were called inactive; ? = inconclusive; . = no result given. Some of the compounds tested, so the mix of outcomes need not match the whole.

SMILES	Mtb growth	RecA intein inh	YopH PTP inh	Mtb bLac sens	Arbovirus inh	others
C/C(=N/Nc1ccc(Cl)cc1)c1cnnc(-c2ccccc2)n1	6%	-2.0	.	0	18
CC(C)NC(=O)NCCCCCCS(C)=O (stereo not drawn)	-6%	1.3	.	-4	4
Cc1cc(-c2ccccc2)nc(SC(C(=O)O)c2ccccc2)n1 (stereo not drawn)	-1%	-1.0	.	-7	3
CCOC(=O)c1cnc(SC)nc1Nc1cccc2ccccc12	-1%	1.6	-15	-4	-6
CCN(CC)c1ccc(NC(=O)CSc2nc(C3CC3)nc3ccccc23)cc1C	.	0.8	.	7	.
CC1=C(C(=O)NCc2ccco2)C2(CCC(C)CC2)OC1=O (stereo not drawn)	-5%	2.4	16	1	2
CCCC(=O)Nc1nnc(CCOC)s1	-9%	0.7	-26	-1	-2
CCOC(=O)CN1C(=O)C(O)(CC(=O)c2cccc(OC)c2)c2ccccc21 (stereo not drawn)	-3%	-1.5	-30	-3	3
CC(c1ccccc1)N1CC(C(=O)Nc2nccs2)CC1=O (stereo not drawn)	.	1.5	.	-7	.
O=c1c2ccccc2c(/C=N/c2ncn[nH]2)c(O)n1Cc1ccccc1	-12%	7.8	-7	6	-15
CCCN1CCN(S(=O)(=O)c2ccc3c(c2)OCCO3)CC1	2%	.	.	2	7
O=C(CCC(=O)NCCCc1ccccc1)NCCCc1ccccc1	3%	0.1	-36	4	-3
COCC(=O)N1CCC(n2nccc2NC(=O)CCOc2ccccc2)CC1	.	-0.2	.	-2	.
Cc1ccc(C)c(C(=O)Cn2c(NCCO)nc3ccccc32)c1	.	0.3	.	14	.
Cc1cc(Cl)ccc1NC(=O)CCC(=O)O	-2%	-1.2	-18	5	-4
O=C1O/C(=C/C(=O)N2CCOCC2)c2ccccc21	9%	.	-14	-8	-4
CCSc1nnc(-c2ccccc2NC(C)=O)c(=O)[nH]1	-11%	2.3	8	-11	4
COc1ccc(CC(=O)O/N=C(\N)c2ccc(C)cc2)cc1	4%	5.5	.	-9	.
Cc1cc(N)ccc1N=Nc1c(C)n(C)n(-c2ccccc2)c1=O	-5%	-2.6	-12	6	-2
O=C1C(=O)N(CCS(=O)(=O)c2ccccc2)c2ccc(Cl)cc21	.	-1.9	.	-1	.
C=CCn1c(N)c(C(=O)Nc2ccccc2)c2nc3ccccc3nc21	6%	17	-23	53	-8
CCCCC(=O)Nc1cc(OC)c(NC(=O)C2CCCCC2)cc1OC	3%	.	-12	0	2
COC(=O)c1c(NC(=O)c2ccco2)sc2c1CCN(C(C)=O)C2	.	-4.3	.	-4	.
COc1ccc(C(=O)NNC2=NC(C)(C)Cc3cc(C)c(C)cc32)cc1	.	-3.5	-13	-18	3
Cc1[nH][nH]c(=O)c1N=Nc1ccc(Cl)cc1	0%	3.9	.	-3	4
O=C(NCc1ccco1)C(=O)NCC1OCCCN1S(=O)(=O)c1ccc(Cl)cc1 (stereo not drawn)	-2%	.	.	6	6
COc1ccc(CCNC(=O)c2c(N)no[n+]2[O-])cc1OC	2%	0.3	.	3	0
Cc1ccc2occ(/C=N/O)c(=O)c2c1	39%	-0.3	-23	53	2
Cc1c(NC(=O)COC(=O)C23CC4CC(CC(Br)(C4)C2)C3)c(=O)n(-c2ccccc2)n1C	1%	1.8	.	11	17
O=C(c1ccccc1F)N(Cc1cccnc1)Cc1cc2cc3c(cc2[nH]c1=O)OCCO3	-6%	-4.8	.	-6	-3
Cc1cc(C(=O)Nc2cccc(C(=O)O)c2)c(C)o1	2%	-1.7	-15	-2	4
Cc1ccc(Nc2cc(C)nc3c(C)ccc([N+](=O)[O-])c23)cc1	12%	63*	-19	88	-3
CSC1=NCCN1S(=O)(=O)c1ccc2ccccc2c1	4%	-1.3	.	1	-1
O=C(C1CCC1)N1CCC(c2nc3c(nnn3Cc3c(F)cccc3Cl)c(=O)[nH]2)CC1	1%	.	-29	0	-4
CC(=O)c1cccc(OCCCOc2cccc3cccnc23)c1	.	-0.8	.	7	.
COc1ccccc1CC(=O)N1CCN(S(=O)(=O)c2ccccc2)CC1	.	0.4	.	-1	.
COc1cccc(CNC(=O)CSc2ccc(-c3cccs3)nn2)c1	-2%	29	.	-1	5
O=[N+]([O-])c1ccccc1/C=C/C=N/n1c(-c2ccccc2)n[nH]c1=S	15%	0.7	-15	5	11
C=COCCNC(=S)Nc1cccc(Cl)c1	0%	2.6	.	-3	16
Cc1ccc(S(=O)(=O)NCCCN2CCOCC2)c(C)c1	-3%	0.6	-43	2	-4	Arbovirus inh repeat=2

Entries from the list above that have an NH in an aromatic ring (six):
SMILES	Mtb growth	RecA intein inh	YopH PTP inh	Mtb bLac sens	Arbovirus inh	others
O=c1c2ccccc2c(/C=N/c2ncn[nH]2)c(O)n1Cc1ccccc1	-12%	7.8	-7	6	-15
CCSc1nnc(-c2ccccc2NC(C)=O)c(=O)[nH]1	-11%	2.3	8	-11	4
Cc1[nH][nH]c(=O)c1N=Nc1ccc(Cl)cc1	0%	3.9	.	-3	4
O=C(c1ccccc1F)N(Cc1cccnc1)Cc1cc2cc3c(cc2[nH]c1=O)OCCO3	-6%	-4.8	.	-6	-3
O=C(C1CCC1)N1CCC(c2nc3c(nnn3Cc3c(F)cccc3Cl)c(=O)[nH]2)CC1	1%	.	-29	0	-4
O=[N+]([O-])c1ccccc1/C=C/C=N/n1c(-c2ccccc2)n[nH]c1=S	15%	0.7	-15	5	11

(further entries)
SMILES	Mtb growth	RecA intein inh	YopH PTP inh	Mtb bLac sens	Arbovirus inh	others
Cc1cc(C(=O)CSc2nnc(N)s2)c(C)n1-c1c(C)n(C)n(-c2ccccc2)c1=O	-6%	1.2	-3	-1	7
CCOCCCNC(=S)N1CCN(CC)CC1	55%	6.0	.	-1	0
COc1ccc(S(=O)(=O)N2CCCC(C(=O)NC3CC3)C2)cc1OC (stereo not drawn)	.	-1.1	.	-3	.
O=C(Oc1c(-c2ccccc2)c(=O)n2c3c(cccc13)CC2)c1ccco1	8%	2.4	.	97	.
Cc1ccc(C2=NNC3(CCOC(C)(C)C3)S2)cc1 (stereo not drawn)	10%	.	.	100	0
Cc1cc(N2CCCC2)c(F)cc1/C=C\[N+](=O)[O-]	83%	-2.7	.	.	-5
O=C(CCS(=O)(=O)c1ccc(Br)cc1)N1CCN(c2ccc(Cl)cc2)CC1	1%	0.6	-110	-2	-2
COc1ccc2ccn(S(=O)(=O)c3ccccc3)c2c1	.	6.4	.	5	.
NC(=O)COc1ccc(NS(=O)(=O)Cc2ccccc2)cc1	.	-0.5	.	-16	.
CCc1cc(C(=O)Nc2cc(S(=O)(=O)N(C)C)ccc2C)sc1C	-5%	3.2	.	-4	1
COc1ccc(Cn2ccnc2SCC(=O)Nc2ccccc2OC)cc1	.	-0.4	.	-12	.
CCCCn1c(N)c(N(CC(C)C)C(=O)C2CCCN(C(=O)c3ccc(Cl)cc3)C2)c(=O)[nH]c1=O (stereo not drawn)	.	-1.2	.	-1	.
CCC(C(=O)NC1CCCC1)N(C(=O)c1snc(C(N)=O)c1N)c1ccc(OC)cc1 (stereo not drawn)	.	-1.3	.	-5	.
Cc1cccc(N2CCN(C(=S)c3ccccc3)CC2)c1	3%	5.2	.	1	-4
Oc1ccc(C2=NNC(=NCc3ccc4c(c3)OCO4)SC2)c(O)c1	4%	-2.5	-8	5	-36
Cc1ccc(C)c(S(=O)(=O)N2CCN(C(=O)CCNS(=O)(=O)c3ccc(C)c(C)c3)CC2)c1	.	3.6	.	-4	.
COc1cccc(NS(=O)(=O)c2ccc3[nH]cc(C(=O)NCCC(C)C)c(=O)c3c2)c1	6%	-0.2	-17	.	2
O=C(NC(=S)Nc1ccc(S(=O)(=O)Nc2ccccc2)cc1)C1CC1	9%	-1.1	.	-3	1
CC(NC(=O)Cn1ncc(Cl)c(Cl)c1=O)C12CC3CC(CC(C3)C1)C2 (stereo not drawn)	?	49*	-26	-10	-36
CCOc1cc2c(cc1OCC)-n1cccc1C(c1cc(OC)ccc1F)NC2 (stereo not drawn)	.	5.8	.	12	.
O=C(c1cc2ccccc2c(=O)o1)N1CCCCCC1	-10%	1.1	-34	-7	5
O=c1c2cc(NC(=S)NC3CCCCC3)ccc2nc2n1CCCCC2	8%	0.2	.	7	-5
COC(=O)c1sccc1-c1ccc(C(=O)Nc2cccc(Cl)c2)o1	-6%	-0.3	-27	-14	1
COc1ccc(CC(=O)n2c(CC#N)nc3ccccc32)cc1OC	-7%	-0.2	-46	2	-4
CCOC(=O)c1nc(SC)n(C)c1C(=O)OCC	-14%	1.0	.	-1	.
CCCC(=O)N=c1sc2c(OC)ccc(OC)c2n1C	-8%	0.5	.	-3	.
O=C(Cc1nnc(NC(=O)c2ccccc2)s1)N/N=C/c1cccc(O)c1	.	-2.1	.	-2	.
CN(C(=O)CC1C(=O)NCCN1Cc1cccc(F)c1F)C1CC(C)(C)NC(C)(C)C1 (stereo not drawn)	.	-0.1	.	-3	.
Cc1ccc(C(=O)Nc2ccc(CN3CCS(=O)(=O)CC3)cc2)cc1C	12%	-1.9	.	-5	.
CCc1sc(C(=O)Nc2ccc3c(c2)OCCO3)cc1Br	.	10	.	-1	.
CCOC(=O)N1CCN(S(=O)(=O)c2c(C)nn(C)c2C)CC1	-5%	0.9	-1	-4	1
CCN(CC(=O)NC(C)C)Cc1nc2sc3c(c2c(=O)[nH]1)CCC3	.	7.0	-7	60	3
c1ccc(COc2ccc(OCCCN3CCCCC3)cc2)cc1	-1%	.	15	0	-9
NS(=O)(=O)c1ccc(N/N=C/c2ccc3c(c2)OCO3)c([N+](=O)[O-])c1	6%	-1.3	.	1	-6
O=C(Nc1ccc(Cl)cc1)c1cccs1	-1%	0.3	-14	18	9
Cc1cc(N2CCN(C3CCCCC3)CC2)nc2cccc(O)c12	8%	-2.7	-12	0	2	Arbovirus inh repeat=-9
Fc1ccc(C2CCCCN2Cc2nc(CC3CC3)no2)cc1 (stereo not drawn)	2%	-1.0	.	3	1
Cn1c(Cn2c(=O)sc3ccccc32)nnc1SCc1ccccn1	-6%	3.2	-8	-10	0
CSc1nnc(CNS(=O)(=O)c2ccc(Cl)cc2)n1C	-4%	0.8	.	-2	3
Cc1nc2ccc(S(=O)(=O)NC(C(=O)Nc3nc4ccc(Cl)cc4s3)C(C)C)cc2s1 (stereo not drawn)	-1%	.	-55	-8	-4
Cc1ncc([N+](=O)[O-])n1CCOC(=O)NC(NCc1cccnc1)C(Cl)(Cl)Cl (stereo not drawn)	1%	0.5	-16	-5	-4
Cc1ccc(C)c(N2CCN(C(=O)CCCn3c(=S)[nH]c4cc5c(cc4c3=O)OCO5)CC2)c1	11%	0.2	-12	81	0
COc1cc(-c2nc3ccc(C)cn3c2Nc2ccc3c(c2)OCCO3)ccc1O	-2%	-0.5	11	6	-1
CCOc1ccccc1C(=O)NCC(=O)NNC(=O)CN(C)S(=O)(=O)c1ccc(Cl)cc1	.	-1.2	.	-8	.
Cn1c(NNC(=O)/C=C/c2ccc3c(c2)OCO3)cc(=O)n(C)c1=O	6%	.	.	2	.
O=C(CO/N=C/c1ccc(OC(F)F)cc1)NC1CCCCCC1	0%	0.0	.	5	11
O=C(COC(=O)CSc1ccc(Br)cc1)NCc1ccco1	.	-3.2	.	2	.
CC1CCCCN1C(=O)c1cc(Cl)ccc1[N+](=O)[O-] (stereo not drawn)	4%	0.0	-24	0	6
CCC(CC)C(=O)N(c1ccc(F)cc1)C1C=CS(=O)(=O)C1 (stereo not drawn)	13%	-0.9	-12	5	5
O=C(O)c1nccnc1C(=O)Nc1ccc(Cl)cn1	.	2.3	.	-5	.
Going on with the list:
SMILES	Mtb growth	RecA intein inh	YopH PTP inh	Mtb bLac sens	Arbovirus inh	others
CSc1nc2ccc(S(=O)(=O)N3CCCCC3)cc2s1	-5%	-2.6	-15	2	1
COc1ccccc1C(=O)NCC(=O)NCC1(N2CCCCC2)CCCCC1	.	0.6	.	-8	.
Cc1ccc(NC(=S)Nc2cc(C)on2)cc1	5%	0.1	.	-2	.
Cc1ccc(-c2csc(=Nc3cccnc3)n2CCCN2CCCC2=O)cc1C	8%	2.3	-20	5	-27
COc1ccc(-c2cc(C(F)(F)F)n3nc(N)nc3n2)cc1	-3%	-156	-14	-6	5
CCCc1cnc(N2CCN(C(=S)NC)CC2)nc1	-10%	.	.	-7	.
CCOc1ccc(CCNC(=O)c2ccc3c(=O)n4c(nc3c2)CCCCC4)cc1	.	0.3	.	7	.
CN1CCN(c2ccc(NC(=O)c3ccc(-c4ccc(Cl)cc4)o3)cc2)CC1	.	0.3	.	?	.
O=C(c1ccc(Br)s1)N1CCN(Cc2ccc3c(c2)OCO3)CC1	69%	1.6	-2	65	12
Nc1nnc(Cc2cccc(Br)c2)s1	4%	0.9	.	5	.
Cc1nc(Nc2ccc(Cl)cc2)c2oc3ccccc3c2n1	.	-2.3	.	-3	.

Source: PubChem BioAssay
